Screens as filed in PubChem.
Lassa entry inh: Lassa virus entry inhibition; Potency, µM (titrated, usually from 37.9 µM), without a hit: at the highest dose activity change, negative = inhibition, hits mostly inhibitors; hit rate 1.2% among 300,000; Lassa virus pseudotype entry inhibition, cell reporter; control for the full effect not named in the record; active means well fitted inhibition curve with a large enough effect; inconclusive means small, poorly fitted or top-dose-only effect, or effect the other way; inactive means flat fitted curve, though single readings scatter; tested in HEK293 cells; further: on the % scale 0 is the no-effect control and ±100 the full control effect; nearly all actives have a fitted effect of over 50% in size; luciferase read-out
Cruzain inh Det: inhibitors of Trypanosoma cruzi cruzain with detergent; P25779; purified cruzain, Z-FR-AMC fluorescence, 0.01% Triton; Potency, µM, for inactives: max response, negative = inhibition, hits mostly inhibitors; hit rate 0.43% among 200,000; active means well fitted curve in the direction sought with a large enough effect; inconclusive means small, poorly fitted or top-dose-only effect, or another doubt; inactive means no such curve, though single readings can be large; an effect the other way counts as inactive or inconclusive;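 further: plate controls were neutral wells for no effect and buffer without enzyme for full effect; nearly all actives have a fitted effect of over 40% in size; top concentration of the series not given in the record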
Target sequence (P25779 123-467 limits assumed): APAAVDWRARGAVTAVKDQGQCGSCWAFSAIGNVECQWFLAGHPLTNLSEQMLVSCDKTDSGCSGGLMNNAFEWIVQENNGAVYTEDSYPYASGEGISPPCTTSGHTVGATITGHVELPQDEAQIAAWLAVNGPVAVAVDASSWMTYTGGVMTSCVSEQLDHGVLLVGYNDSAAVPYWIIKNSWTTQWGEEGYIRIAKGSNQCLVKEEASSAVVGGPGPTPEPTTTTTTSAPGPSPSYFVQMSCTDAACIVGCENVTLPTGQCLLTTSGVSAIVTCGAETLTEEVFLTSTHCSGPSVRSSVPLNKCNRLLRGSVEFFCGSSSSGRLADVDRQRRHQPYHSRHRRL
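15 min RT preincubation of 1.5 nM cruzain with compound, then 2 uM Z-FR-AMC added; kinetic AMC fluorescence, 60 s delta. Triton X-100 0.01%, pH 5.5.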
RE007 growth inh: less growth of the S. pombe RE007 Vpr strain | S. pombe RE007 Vpr strain, BacTiter-Glo ATP luminescence, 24 h; control for the full effect not named in the record | Potency, µM (top dose mostly 92.2 µM), for the others: at the top dose activity change, negative = less growth | hit rate 0.21% among 360,000; active = well fitted falling curve with a large enough effect; inconclusive = small, poorly fitted or top-dose-only effect; inactive = no such curve, though single readings can be large or run the other way;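 further: on the % scale 0 is the no-effect control and ±100 the full control effect; nearly all actives have a fitted effect of over 50% in size; the assay follows cell death caused by Vpr and the record does not say whether a fall means rescue or toxicity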
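Fission yeast RE007 carrying one integrated HIV-1 vpr copy, seeded at OD 0.01 in PMG+AL medium with 23 nL pinned compound. Grown 24 h at 30 degrees; viability read by BacTiter-Glo luminescence after 5 min.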
NS1 inh: influenza NS1 inhibition; S. cerevisiae slowed by influenza A NS1, growth recovery by OD600; Potency, µM (titrated, usually from 46.1 µM), inactives show top-dose activity, positive = more growth; hit rate 0.4% among 270,000; AID 2326; further: actives are rising curves; nearly all actives have a fitted effect of over 50% in size
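Compounds were scored for reversing the slow growth caused by influenza A NS1 in S. cerevisiae, measured by optical density at 600 nm. Assay medium contained 2% galactose at pH 6.0; NS1-free yeast of the same strain were the positive control.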
Cruzain noTriton: inhibitors of Trypanosoma cruzi cruzain without detergent; purified cruzain, Z-FR-AMC fluorescence, no detergent; hit rate 2.3% among 200,000; Potency, µM, for inactives: max response, negative = inhibition, actives largely listed as inhibitors; active means well fitted curve in the direction sought with a large enough effect; inconclusive means small, poorly fitted or top-dose-only effect, or another doubt; inactive means no such curve, though single readings can be large; an effect the other way counts as inactive or inconclusive;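 further: plate controls were enzyme without inhibitor for no effect and buffer without enzyme for full effect; nearly all actives have a fitted effect of over 40% in size; top concentration of the series not given in the record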
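Purified cruzain at 1.5 nM, pre-incubated 15 min with compound at room temperature in 100 mM sodium acetate pH 5.5, 5 mM DTT, 0.00005% Triton X-100. Reaction started with 2 uM Z-FR-AMC; AMC fluorescence increase over 60 s gives rate.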
SARS PLP yeast: inhibitors of SARS-CoV papain-like protease in yeast; S. cerevisiae expressing SARS-CoV PLpro, growth rescue; control for the full effect not named in the record; Potency, µM (top dose mostly 32.9 µM), for inactives: at the highest dose activity, positive = growth rescue; hit rate 0.19% among 330,000; further: 0% is about no effect; nearly all actives have a fitted effect of over 55% in size; growth read by luminescence after 48 h
2A StopGo: FMDV 2A StopGo reporter, luciferase signal; Potency, µM (highest dose often 57.9 µM), without a hit: at the highest dose signal change, negative = less light; hit rate 1.2% among 410,000; human cells with a luciferase reporter of 2A StopGo recoding; control for the full effect not named in the record; AID 1159524; active = well fitted falling curve with a large enough effect; inconclusive = small, poorly fitted or top-dose-only effect; inactive = no such curve, though single readings can be large or run the other way; tested in HEK293T cells; further: on the % scale 0 is the no-effect control and ±100 the full control effect; nearly all actives have a fitted effect of over 45% in size; luciferase light after 4 h
MARV entry inh: blocks Marburg virus binding to or entry into cells | Marburg virus pseudotyped entry inhibition, cell reporter; control for the full effect not named in the record; about a third of the inactives were read at about 46 µM | Potency, µM (doses to about 37.8 µM), for the others: top-dose activity change, negative = inhibition, actives largely listed as inhibitors | hit rate 1.8% among 300,000 | AID 540276; active = well fitted inhibition curve with a large enough effect; inconclusive = small, poorly fitted or top-dose-only effect, or effect the other way; inactive = flat fitted curve, though single readings scatter; tested in HEK293 cells; about a fifth of its hits are not listed in these tables; further: on the % scale 0 is the no-effect control and ±100 the full control effect; luciferase read-out
* = called active by the depositor; ? = inconclusive; . = not tested or not shown; & = joins results of further samples; [ ] = dose if it differs, or a comment. Unless noted, the call rests on the fitted dose curve; in most records, active means well fitted rising curve with a large enough effect; inconclusive means small, poorly fitted or top-dose-only effect; inactive means no such curve, though single readings can be large or run the other way. Potency means the concentration at half of the fitted maximal effect.

SMILES	Lassa entry inh	Cruzain inh Det	RE007 growth inh	NS1 inh	Cruzain noTriton	SARS PLP yeast	2A StopGo	MARV entry inh
S=c1[nH]c2ccccc2n2cccc12	.	.	-10%	3%	.	8%	2%	.
COc1ccc(S(=O)(=O)NCCc2sc(C)nc2C)cc1	-11%[46.1 µM]	-11%	.	.	-22%	.	29%	.
COCCN(C(=S)Nc1ccc(C)cc1)C(C)c1ccco1 (stereo not given)	-6%	.	-10%	-4%	.	2%	44%[activator]	21%[46.1 µM]
O=C(Cc1ccccc1[N+](=O)[O-])NC1CC2CCC1C2 (stereo not given)	-8%[46.1 µM]	.	2%	9%	.	-9%	6%	2%[46.1 µM]
CC1(C)CCc2cc(-c3ccn(S(=O)(=O)c4ccccc4Cl)n3)ccc2O1	-2%	.	2%	-2%	.	0%	16%	2%[14.2 µM]
Cc1cc(C(=O)NC2CCCCC2)on1	.	.	0%	-5%	.	2%	-4%	.
Cn1c(=O)c2c(nc(SCC(=O)Nc3ccccc3F)n2Cc2ccc(Cl)cc2)n(C)c1=O	-10%[46.1 µM]	0.8%	.	.	3%	.	?	-4%[46.1 µM]
CNS(=O)(=O)c1cn(CC(=O)Nc2cccc(C(F)(F)F)c2)cc1S(=O)(=O)NC	-1%[46.1 µM]	-5.1%	.	.	8%	.	25%	.
CCCCOC(=O)c1ccc(OC(=O)c2sc3ncn(Cc4ccccc4Cl)c(=O)c3c2C)cc1	5%[46.1 µM]	-0.5%	.	.	-6%	.	-5%	.
CN(C)CCCNC(=O)C(=O)Nc1ccc2c(c1)N(S(=O)(=O)c1cccs1)CCC2	4%[46.1 µM]	.	-3%	.	.	0%	2%	?
COc1ccc(C(c2sc3nc(C)nn3c2O)N2CCN(CCO)CC2)cc1OC (stereo not given)	.	6.2%	1%	-3%	-8%	3%	-18%	2%
Cc1cc(C)n2c(Nc3ccccc3C)c(-c3cccs3)nc2n1	2%[46.1 µM]	-1.5%	.	.	-16%	.	-23%	13%[46.1 µM]
c1ccc2c(c1)CCN(C1=Nc3cccc4cccc1c34)C2	?	.	-15%	.	.	0%	-11%	?
Cc1ccc(NC(=O)C2CCCN(S(=O)(=O)c3cnc[nH]3)C2)cc1C (stereo not given)	.	-3.8%	2%	-8%	4%	-1%	2%	.
COC(=O)CN1C(=O)Nc2ccc(Cl)cc2C1c1ccccc1 (stereo not given)	?	.	10%	-1%	.	-3%	-13%	-6%[46.1 µM]
CCOc1ccc2nc(NC(=O)Cc3cccs3)sc2c1	?	-13%	-1%	-9%	-2%	-12%	56%[activator]	1%
Cn1c(=O)c2[nH]c(C3CCC3)nc2n(C)c1=O	9%[46.1 µM]	.	0%	.	.	.	-3%	7%
O=C(Nc1nnc(-c2ccccc2)s1)c1ccccc1F	.	.	2%	-43%	.	0%	46%	.
Oc1ccc(/C=N\Nc2nncc(-c3ccccc3)n2)cc1	.	.	-9%	5%	.	4%	-6%	.
Cc1ccc(NC(=O)CSc2nnc(C3CCCCC3)n2N)cc1F	18%	-4.9%	-1%	-5%	7%	-4%	-16%	2%
COC1=CCC2([N+](=O)[O-])CN(C)CC1([N+](=O)[O-])C2 (stereo not given)	.	6.7%	2%	-1%	-15%	-4%	-3%	4%
CCCN(CCC)CCCNc1ccc2nnc(-c3ccc(F)cc3)n2n1	.	1.7%	-2%	1%	0%	8%	-7%	.
CCOC(=O)CNC(=O)C(CO)NC(=O)OCc1ccccc1 (stereo not given)	2%	0.4%	2%	2%	-1%	-1%	12%	19%
NC(=O)CC(NC(=O)c1ccc(Br)cc1)c1ccc(NCc2ccc(F)cc2)c([N+](=O)[O-])c1 (stereo not given)	.	.	1%	-9%	.	2%	-29%	.
Cc1c(CN2CCC(CO)(CC3CCCCO3)CC2)cnn1C (stereo not given)	7%	.	5%	-5%	.	-2%	5%	12%[46.1 µM]
Cc1ccc(C)c(S(=O)(=O)N2CCN(CC(=O)Nc3ccc4c(c3)OCCO4)CC2)c1	-2%	-5.2%	-15%[3.69 µM]	-66%	2%	7%	-13%	7%
Cc1cc(OCC(=O)NC(Cc2ccc(Cl)cc2)C(=O)O)c2c(C)cc(=O)oc2c1 (stereo not given)	.	.	0%	13%	.	9%	-19%	.
C/C(=N\OC(=O)c1cccc(Cl)c1)c1sc(C)nc1C	1%	3.5%	-4%	-9%	4%	4%	-13%	27%
Cc1c(C(c2ccc(C(=O)O)cc2)c2c(C)n(C)n(-c3ccccc3)c2=O)c(=O)n(-c2ccccc2)n1C	?	.	10%	6%	.	1%	16%	-13%
CCNc1nc(NC(C)C)nc(N(C#N)Cc2ccccc2)n1	8%	-1.0%	21%	-7%	-12%	-1%	?	-4%[46.1 µM]
COc1ccc(CN2CCc3cc(OC)c(OC)cc3C2)cc1O	.	.	-18%	1%	.	0%	-17%	.
CCOC(=O)c1sc(Nc2cccc(Cl)c2)nc1C	-27%	.	-3%	-5%	.	0%	21%	-14%[46.1 µM]
CCOc1ccc(CCNC(=O)c2cc(C)nn2-c2ccccc2)cc1	?	.	-8%	-4%	.	2%	-6%	-5%[46.1 µM]
O=C(NCC1CCCN1S(=O)(=O)c1cccs1)c1c(F)cccc1F (stereo not given)	-2%	.	-1%	.	.	1%	-4%	22%
CCN(CC)S(=O)(=O)c1ccc2c(c1)nc(CCC(=O)Nc1ccccc1Cc1ccccc1)n2CC	?	-2.5%	6%	12%	?	4%	-18%	?
CCOC(=O)c1ccc(NC(=O)c2cc(S(=O)(=O)N3CCOCC3)cn2C)cc1	.	.	-5%	9%	.	-6%	-10%	.
COC(=O)C1=C(N)Oc2cc(N(C)C)ccc2C1c1ccccc1OC (stereo not given)	?	-11%	-14%	?	-6%	-4%	0%	?
CC(C)(C)c1ccc(NC(=O)CSc2n[nH]c(=O)n2-c2cccnc2)cc1	-11%[46.1 µM]	.	9%	10%	.	0%	-7%	14%[46.1 µM]
CC1CCN(C(=O)c2cc3nc(-c4ccccc4)cc(-c4ccccc4)n3n2)CC1	-3%	-6.2%	-3%	8%	1%	-26%	79%[activator]	?
Cc1ccc(OCC(=O)Nc2nnn(C)n2)c(C)c1	18%	-6.9%	18%	-5%	3%	6%	48%[activator]	5%
Cc1ccccc1CNC(=O)C(=O)NCCC1CCCCN1S(=O)(=O)c1cccs1 (stereo not given)	?	.	39%	.	.	-2%	-10%	10µM*
N#C/C(=C1\C(=O)Nc2c(Cl)cc(Cl)cc21)c1nnc2n1CCCCC2	12%	2.6%	-5%	8%	8%	7%	8%	-19%[46.1 µM]
NS(=O)(=O)c1cccc(NC(=O)CSc2nnnn2-c2ccccc2)c1	5%	.	-10%	?	.	2%	4%	4%
Cc1ccc(-c2nc3ccccn3c2Nc2ccccc2C)s1	4%[46.1 µM]	-11%	.	.	11%	.	-12%	-3%[46.1 µM]
CCCCOP(=O)(c1ccc(N(C)C)cc1)C(O)c1ccc(OC)c(OC)c1 (stereo not given)	20%[46.1 µM]	.	4%	-3%	.	0%	-16%	14%[46.1 µM]
O=C(Nc1nc2ccccc2n1CCN1CCOCC1)c1ccc(COc2ccccc2Br)o1	?	.	-6%	.	.	1%	-23%	?
Cc1ccc(S(=O)(=O)N2CCN(C(=O)c3ccc(-n4cncn4)c([N+](=O)[O-])c3)CC2)cc1	-3%	.	2%	.	.	1%	-19%	-8%
Cc1cc(OCCCCn2ccnc2)cc(C)c1Cl	.	.	-8%	.	.	-12%	-18%	-12%[46.1 µM]
Cc1cccc(NC(=O)c2ccc3c(c2)CCN3S(=O)(=O)c2ccccc2)c1C	-18%[46.1 µM]	-2.9%	.	.	0%	.	10%	6%[46.1 µM]
Cc1ccc(NS(=O)(=O)c2ccc3c(c2)NC(=O)CCS3)c(C)c1	-28%[46.1 µM]	.	-12%	-3%	.	17%	-13%	?

Carrying on:
SMILES	Lassa entry inh	Cruzain inh Det	RE007 growth inh	NS1 inh	Cruzain noTriton	SARS PLP yeast	2A StopGo	MARV entry inh
O=C(CNC(=O)c1ccccc1F)NC1CC1	7%	0.6%	-3%	8%	3%	-14%	6%	12%
CC1CCCN(C(=O)COC(=O)c2cc(Br)ccc2O)C1 (stereo not given)	6%	.	-12%	.	.	-6%	24%	27%
COc1ccc(/C=C2/SC(=O)N(CCC(=O)Nc3ccc(C)cc3)C2=O)cc1OC	.	-5.9%	.	-4%	-13%	5%	.	-1%
CCOc1cc(/C=N/NC(=O)CN2CCCCC2)ccc1OCc1cccc(Cl)c1	8%	-5.8%	-22%	-6%	-1%	-8%	?	?
COc1cc(C)c(C)cc1S(=O)(=O)Nc1cccc(-c2ccc(N3CCOCC3)nn2)c1	-8%[46.1 µM]	-4.8%	.	.	?	.	11%	.
O=C(c1ccco1)N1CCN(C(=O)c2cccc3c2C(=O)N(C2CCCCC2)C3)CC1	-5%&-3%	-3.7%	-13%	-9%	8%	6%	-6%	-6%&-5%
CCOC(=O)c1cccc(NC(=O)C2CCN(c3nnc(C)c4c(C)n(-c5ccccc5)nc34)CC2)c1	8%[46.1 µM]	-3.4%	.	.	-7%	.	0%	.
O=C(Nc1ccccc1)OCCNC(=O)c1cccc(Cl)c1	-20%	-2.4%	12%	?	7%	13%	-15%	8%[46.1 µM]
CCOc1cc(/C=N/n2c(C)nnc2C)ccc1O	.	.	-9%	7%	.	0%	-19%	.
COc1cccc(C2CC(c3cccc(C)c3)n3ncnc3N2)c1 (stereo not given)	.	-2.9%	-2%	-6%	-4%	1%	-20%	.
Cc1ccc(C(=O)N/C(=C\c2ccc(C)o2)C(=O)O)cc1	.	.	1%	2%	.	-1%	0%	6%
CC1=CC2=NC(=O)/C(=C\c3cccn3CCOc3ccccc3C)C(=N)N2O1	?	.	-1%	.	.	-4%	11%	?
CSc1nc(-c2ccco2)nn1S(=O)(=O)c1ccc(C)cc1	-4%	-4.4%	2%	-28%	23%	-5%	7%	16%
CCOC(=O)N1CC=C2C(C#N)=C(N)C(C#N)(C#N)[C@H](c3ccsc3)[C@H]2C1	-2%	-2.8%	-10%	-8%	-7%	9%	0%	-22%
CCOc1ccc(-c2nnc(-c3cccs3)o2)cc1OCC	-10%	-11%	-14%	-12%	?	5%	0%	6%
